# Screening results from PubChem.
# Sa growth inh = S. aureus growth inhibition; S. aureus RN4220 growth, OD600, 20 h, 42 °C; stronger effect = lower value; relative growth, % (concentration not given with the values); 170,000 tested, 0.53% active; AID 720641;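 active = growth at 42 °C up to 50% and 20 or more points under that at 30 °C, or under 10% at both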;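 also: 300 nL library stock went into each well; scaled to the means of positive and negative controls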
# HCMV NEC inh = cytomegalovirus nuclear egress complex inhibition; inhibition, % (test concentration not listed); 190,000 tested, 0.15% active; HTRF UL50-UL53 interaction, normalized percent inhibition; AID 1918969;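 active = both replicates at 50% or more, plus weaker picks with an unusually low signal ratio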;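 also: stock transfer was 100 nL into about 20 µL; 0% = negative control wells and 100% = wells with untagged competitor protein; inactives centre near -12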
# GIV Gai3 FP = blocks GIV peptide binding to rat Galpha-i3; 210,000 tested, 0.42% active; P08753; Galpha-i3/FITC-GIV peptide fluorescence polarization, 90 min; stronger effect = lower value; scaled: aluminum fluoride 0%, vehicle 100%; percent of control (FP), % (test concentration not listed);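 active = replicate mean at 85% of control or lower, very high polarization wells dropped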;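 also: wells of about 15 µL received 100 nL stock; the first replicate is given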
# Target sequence (P08753 whole entry, looked up): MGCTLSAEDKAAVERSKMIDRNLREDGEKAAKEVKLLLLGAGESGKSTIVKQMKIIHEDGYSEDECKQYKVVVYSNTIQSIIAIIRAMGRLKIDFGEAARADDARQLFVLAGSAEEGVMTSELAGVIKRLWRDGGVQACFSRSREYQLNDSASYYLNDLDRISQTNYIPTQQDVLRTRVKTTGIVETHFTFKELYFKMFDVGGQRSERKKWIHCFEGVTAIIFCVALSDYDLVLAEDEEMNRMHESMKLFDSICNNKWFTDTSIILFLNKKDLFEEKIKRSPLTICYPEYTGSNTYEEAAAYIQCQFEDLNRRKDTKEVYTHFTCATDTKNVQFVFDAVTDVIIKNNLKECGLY
# Sa growth inh second temp = also measured in Sa growth inh; calls as there; relative growth, %; measured here: growth at 30 °C;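 optical density after 20 h as mean of two plates; 100% = untreated growth and lower means inhibition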
# * marks the source's active call; other numbers are inactive results; nt = not tested or not shown; & = joins results of further samples. Compounds were not picked by outcome, and some 0.85% of all compounds hit somewhere here.
SMILES,Sa growth inh,Sa growth inh second temp,HCMV NEC inh,GIV Gai3 FP
CCc1c(C)nc2nc(-c3ccccc3)nn2c1Nc1cccc(OC)c1,nt,nt,3,109
CCNC(=O)N1CCCC(c2cccc(C(=O)NCCN3CCCCC3C)c2)C1 (stereo not drawn),nt,nt,-25,111
CCOC(=O)C1=C(c2ccc(Cl)cc2)Sc2nnc(C(F)(F)F)n2N=C1N,73,22,7,nt
CCC1(CC)C(C)=[N+](C)c2ccccc21,98,57,nt,105
CC1(C)Cc2ccccc2-c2nc(NCCCO)n(-c3ccccc3)c(=O)c21,109,113,15,109
O=C(COc1ccccc1Cl)Nc1ccc2oc(-c3ccccc3F)nc2c1,111,83,-26,99
Cc1ccccc1Cn1c(C)c(CNC2CCCC2)c(C(=O)O)c1C,98,83,nt,101
CCOCCCNC(=O)C1c2c(n(C)c3ccccc23)SCC(=O)N1c1ccc(OCC)cc1 (stereo not drawn),nt,nt,-16,98
CCn1cc(C(=O)N2CCN(c3cccc(Cl)c3)CC2)c2cc(OC)c(OC)cc2c1=O,99,65,4,107
COc1cccc(CNc2nc3c(-c4ccccc4)nnn3c3ccccc23)c1,87,100,-6,110
NS(=O)(=O)c1ccc(NC(=O)COC(=O)c2cccc(Cl)c2)cc1,102,96,-13,nt
COc1cccc(C(=O)Nc2c(-c3ccc(F)cc3)nc3ccccn23)c1OC,nt,nt,-17,98
CCOC(=O)c1nn(-c2ccccc2)c2nc(=O)c(C#N)c(-c3ccccc3)n12,105,99,-6,107
COC(=O)c1ccc(CSc2nnc3ccc4ccccc4n23)cc1,101,88,-28,105
O=C(COC(=O)c1ccc2c(c1)OCCO2)NC1CCCC1,102,87,-12,nt
COc1ccc2c(C)c(CCC(=O)NCc3ccc(C)cc3)c(=O)oc2c1,98,83,-36,94
O=S1(=O)C[C@H](N2CCN(c3ccccn3)CC2)[C@@H](S(=O)(=O)c2ccccc2)C1,nt,nt,-26,95
CCN(CC)c1ccc(C#N)cc1,92,87,-10,99
Cc1ccc(COc2cccc3c2CCN(C)C3=O)cc1,91,86,-17,98
C(=NC1=NN(c2ccccc2)CC1)c1ccccc1,96,79,-16,103
CCNC(=O)C1CCCN(S(=O)(=O)N(C)c2ccc(F)cc2)C1 (stereo not drawn),107,100,-11,110
COc1cccc(NC(=O)C2CCCCN2S(=O)(=O)c2ccc(F)cc2)c1 (stereo not drawn),nt,nt,-4,106
COc1ccc(NC(=S)Nc2ccc(N3CCOCC3)c3nonc23)cc1OC,110,96,-63,72*
O=C(C1CCN(c2nnc(N3CCCC3=O)s2)CC1)N1CCN(C2CCCCC2)CC1,84,95,4,107
CC(=O)NC(=O)CSc1nnc(NC(=O)CSc2nc3ccccc3s2)s1,99,86,-6,109

# The results go on:
SMILES,Sa growth inh,Sa growth inh second temp,HCMV NEC inh,GIV Gai3 FP
CCOc1cccc2cc(-c3nc(-c4ccc(Cl)cc4)c(C)s3)c(=O)oc12,116,89,nt,100
Cc1cc(C)c2c(-n3cccc3)c(C(=O)Nc3ccc(F)cc3F)sc2n1,nt,nt,-24,104
CC(C)Oc1ccc(CNc2ncnc3oc4c(c23)CCCC4)cc1,nt,nt,-35,106
CCC(C(=O)OCc1cc(=O)n2nc(C)sc2n1)c1ccccc1 (stereo not drawn),93,97,nt,111
O=C(CCc1nnc2n(Cc3ccccc3)c(=O)c3ccccc3n12)N1CCN(c2ccc(F)cc2)CC1,nt,nt,-19,103
CC(C)(C)c1ccc(C(=O)NCCc2csc3nc(-c4ccccc4F)nn23)cc1,80,79,nt,105
CC(=O)Nc1ccccc1C(=O)N1CCCCC1,96,99,4,nt
O=c1[nH]c(-c2ccccc2O)nc2c1Cc1cc(F)ccc1O2,nt,nt,-7,100
CCOC(=O)C1(C)C=C(Nc2ccc(OC)cc2)C(=O)N1c1ccccc1 (stereo not drawn),87,89,-39,107
N#Cc1ccccc1Cn1c(=O)n(CCCCC(=O)NCc2ccco2)c(=O)c2ccccc21,92,84,nt,102
Cc1ccc(N2C(=O)c3ccc(C(=O)O)cc3C2=O)cc1,97,92,-68,102
COc1cccc(CNC(=O)CN2C(=O)CCc3cc(S(=O)(=O)N4CCOCC4)ccc32)c1,71,89,nt,100
COc1ccc(CC(=O)Nc2ccc(-c3nc4ccccc4s3)c(C)c2)cc1,119,97,nt,101
CCc1ccc(NC(=O)C(CC)Sc2nnc(-c3ccccc3NC(C)=O)c(=O)[nH]2)cc1 (stereo not drawn),nt,nt,-23,100
Cc1nn(-c2ccccc2)c(C)c1CN(C)C(=O)CCCn1c(=O)oc2ccccc21,92,90,-22,nt
N#Cc1cnc(Nc2nc3ccccc3s2)nc1-c1ccccc1,114,94,-17,103
CC1CCCC(C)N1C(=O)CSc1ccccc1 (stereo not drawn),94,81,-40,nt
CCNc1nc(NCC)n2c(SCC(=O)c3cccs3)nnc2n1,89,85,-14,nt
O=C1CC(c2ccccc2)S(=O)(=O)c2ccccc2N1 (stereo not drawn),109,74,-9,100
Cc1cccc(OCc2ccc(C(=O)NCCCN3CCOCC3)cc2)c1,107,97,-26,97
COC(=O)c1ccc(COc2ccccc2C(=O)c2cnn(-c3ccccc3)c2)o1,120,88,-4,nt
COc1cc2c(cc1OC)C(c1ccc(F)cc1)N(c1cccc(C#N)c1)C(=O)C2 (stereo not drawn),103,87,-16,98
Cc1cc(=O)[nH]c2c1c(C)nn2-c1ccc(Br)cc1,nt,nt,-20,100
COc1cccc(CNC(=O)CN(c2ccc(C(C)C)cc2)S(=O)(=O)c2c(C)n[nH]c2C)c1,95,84,-30,104
NNC(=O)COc1cccc(Oc2ccccc2)c1,90,91,-16,98

# (continued)
SMILES,Sa growth inh,Sa growth inh second temp,HCMV NEC inh,GIV Gai3 FP
CC(C)N(C(=O)Cn1nnc2ccccc21)c1ccccc1,96,87,-11,nt
N#CCCN(CC1CCCO1)S(=O)(=O)c1cccc2nsnc12 (stereo not drawn),97,92,-112,107
O=C(CC1N=C2c3ccccc3N=C(SCC(=O)Nc3ccc(F)cc3)N2C1=O)NCc1cccs1 (stereo not drawn),76,86,nt,99
O=C(O)c1ccc(NC(CC(=O)c2ccc(Cl)cc2)c2ccccc2)cc1 (stereo not drawn),72,59,nt,99
COc1ccc(NC(=O)c2ccc(NC(=O)N3CCCCc4ccccc43)cc2)cc1,nt,nt,-5,105
COc1ccc(CCNC(=O)C(=O)Nc2ccccc2F)cc1,101,91,-50,109
Cc1ccc(Cn2c3ccccc3c3cnn(CC(=O)N4CCCCCC4)c(=O)c32)cc1,116,95,-15,97
Cc1cc(C)cc(NC(=O)CN2C(=O)CSc3ccc(S(=O)(=O)N(C)C)cc32)c1,77,78,nt,104
Cn1nc(CSc2ccc(Cl)cc2)c(CO)c1Cl,nt,nt,-18,102
CC(C)(C)C(=O)N1CCCC1c1ccccc1Cl (stereo not drawn),nt,nt,-16,97
COc1cc(/C=C2\C(=O)NC(=O)N(c3ccc(Br)cc3)C2=O)c([N+](=O)[O-])cc1OC,nt,nt,-77,106
Cc1nc(Oc2cccc(F)c2)c2c(C)c(C)sc2n1,nt,nt,-26,105
CCCN(CCC)C(=O)c1c[nH]c2ccc(S(=O)(=O)N(C)c3ccccc3OCC)cc2c1=O,112,88,2,nt
COc1cc(CNc2nc3ccccc3[nH]2)cc(OC)c1OC,88,83,4,100
O=C(O)c1ccccc1SC(C(=O)O)c1ccccc1 (stereo not drawn),95,85,-44,98
O=C(NC(=S)NC1CC1)c1ccco1,105,95,-14,nt
OC(CNCc1ccc(Cl)cc1Cl)C(F)(F)F (stereo not drawn),nt,nt,1,106
CCCCOc1ccc(C2=N/C(=C\c3cc(OC)c(OC)cc3OC)C(=O)O2)cc1,nt,nt,-34,131
Cc1cc(C)nc(NS(=O)(=O)c2ccc(NC(=O)c3cc(S(=O)(=O)N4CCOCC4)ccc3C)cc2)n1,102,87,-19,nt
COc1ccc(CN(Cc2cccs2)C(=O)Cc2c(C)noc2C)cc1OC,80,88,-22,nt
Cc1cccc(CNC(=O)CCc2ccc(-n3cnc4cccnc43)cc2)c1,nt,nt,-4,233
CCOC(=O)c1ccccc1OCc1cc(C2Nc3ccccc3C(=O)N2c2ccccc2)ccc1OC (stereo not drawn),nt,nt,-16,100
O=C(O)COCC(=O)Nc1ccccc1C(F)(F)F,93,89,-10,97
Cc1c(C(=O)NCc2ccccc2Br)oc2ccccc12,96,104,-6,100
CCc1ccc(C(=O)NCCOC)s1,108,103,-7,104

# A different layout for part of the listing above:
# Order of results – Sa growth inh | Sa growth inh second temp | HCMV NEC inh | GIV Gai3 FP
> O=C(CC1N=C2c3ccccc3N=C(SCC(=O)Nc3ccc(F)cc3)N2C1=O)NCc1cccs1 (stereo not drawn)
  76 | 86 | nt | 99
> O=C(O)c1ccc(NC(CC(=O)c2ccc(Cl)cc2)c2ccccc2)cc1 (stereo not drawn)
  72 | 59 | nt | 99

# Additional records.
SMILES,Sa growth inh,Sa growth inh second temp,HCMV NEC inh,GIV Gai3 FP
CCc1ccccc1NC(=O)c1ccc(F)c(S(=O)(=O)NC2CCCCCC2)c1,104,87,nt,102
CCOC(=O)c1cnc2cc(C(F)(F)F)ccc2c1N1CCN(c2ccc(OC)cc2)CC1,88,84,-15,103
O=C(COC(=O)Cn1[nH]c(=O)c2ccccc2c1=O)Nc1ccccc1C(=O)NC1CC1,103,92,16,nt
CC(=O)Nc1ccc(S(=O)(=O)NC(=O)CC(C)C)cc1,112,86,-9,102
O=C(Cc1noc2ccccc12)NCCc1ccc(Cl)cc1,115,89,nt,101
CC(O)CNCC(=O)Nc1ccccc1Br (stereo not drawn),99,97,-4,nt
CCOC(=O)c1c(C)oc(C)c1S(=O)(=O)Nc1ccccc1,110,92,-23,108
N#Cc1c(Cl)cccc1N1CCC(C(N)=O)CC1,96,89,3,99
CCC(Oc1cccc(C)c1)c1nc2ccccc2[nH]1 (stereo not drawn),87,71,-22,100&106
COc1ccc(Nc2c(-c3ccc(C)o3)nc3ncccn23)cc1OC,98,87,-52,102
CCSCCOC(=O)C1=C(C)NC2=C(C(=O)CC(c3ccccc3)C2)C1c1ccc(OC(C)=O)c(OC)c1 (stereo not drawn),nt,nt,-15,102
Cc1ccc2oc(C(=O)N(C)c3ccccc3)c(C)c2c1,104,100,-7,103
C=CCn1c(Sc2ccc(S(=O)(=O)N(CC)c3ccccc3)cn2)nnc1C1CCCCC1,81,90,-18,nt
O=C(c1c[nH]c2ccc(Cl)cc2c1=O)N1CCSCC1,nt,nt,-5,98
CCOC(=O)c1cc2c(N)c(C(=O)OCC)sc2nc1C,88,68,1,98
O=C(Nc1ccccc1F)c1ccccc1OCc1nc(-c2ccccc2)no1,nt,nt,-7,107
O=C1NC(=Nc2ccccc2)S/C1=C/c1cc2c(cc1[N+](=O)[O-])OCO2,nt,nt,-8,100
CCc1nc2ccc(C(=O)O)cc2nc1CC,69,83,-33,103
Cc1csc(=O)n1CC(=O)OCC(=O)NC1CCCCCCC1,98,92,-20,nt
CCOC(=O)c1c2n(c3ccc(O)cc13)CCCCC2,110,105,-1,105
COc1ccc(-c2csc(=Nc3ccccc3)n2N2CCOCC2)cc1,106,98,-28,100
COc1ccc(CNc2nc(SC)n[nH]2)cc1OC,96,100,1,102
COCCNC(=O)c1ccc(-c2ccccc2)s1,92,87,-77,103
COc1ccc(S(=O)(=O)NC(C)C(=O)N2CCN(C)CC2)cc1Cl (stereo not drawn),88,100,13,98
COc1ccc(CNC(=O)C2CCN(c3nnc(-n4c(C)ccc4C)s3)CC2)c(OC)c1,100,88,-15,105

# Some of the entries so far, with values under each structure:
# Every second line gives: Sa growth inh | Sa growth inh second temp | HCMV NEC inh | GIV Gai3 FP
> CCc1ccccc1NC(=O)c1ccc(F)c(S(=O)(=O)NC2CCCCCC2)c1
 : 104 | 87 | nt | 102
> CCOC(=O)c1cnc2cc(C(F)(F)F)ccc2c1N1CCN(c2ccc(OC)cc2)CC1
 : 88 | 84 | -15 | 103
> O=C(COC(=O)Cn1[nH]c(=O)c2ccccc2c1=O)Nc1ccccc1C(=O)NC1CC1
 : 103 | 92 | 16 | nt
> CC(=O)Nc1ccc(S(=O)(=O)NC(=O)CC(C)C)cc1
 : 112 | 86 | -9 | 102
> O=C(Cc1noc2ccccc12)NCCc1ccc(Cl)cc1
 : 115 | 89 | nt | 101
> CC(O)CNCC(=O)Nc1ccccc1Br (stereo not drawn)
 : 99 | 97 | -4 | nt
> CCOC(=O)c1c(C)oc(C)c1S(=O)(=O)Nc1ccccc1
 : 110 | 92 | -23 | 108
> N#Cc1c(Cl)cccc1N1CCC(C(N)=O)CC1
 : 96 | 89 | 3 | 99
> CCC(Oc1cccc(C)c1)c1nc2ccccc2[nH]1 (stereo not drawn)
 : 87 | 71 | -22 | 100&106
> COc1ccc(Nc2c(-c3ccc(C)o3)nc3ncccn23)cc1OC
 : 98 | 87 | -52 | 102
> CCSCCOC(=O)C1=C(C)NC2=C(C(=O)CC(c3ccccc3)C2)C1c1ccc(OC(C)=O)c(OC)c1 (stereo not drawn)
 : nt | nt | -15 | 102
> Cc1ccc2oc(C(=O)N(C)c3ccccc3)c(C)c2c1
 : 104 | 100 | -7 | 103
> C=CCn1c(Sc2ccc(S(=O)(=O)N(CC)c3ccccc3)cn2)nnc1C1CCCCC1
 : 81 | 90 | -18 | nt
> O=C(c1c[nH]c2ccc(Cl)cc2c1=O)N1CCSCC1
 : nt | nt | -5 | 98
> CCOC(=O)c1cc2c(N)c(C(=O)OCC)sc2nc1C
 : 88 | 68 | 1 | 98
> O=C(Nc1ccccc1F)c1ccccc1OCc1nc(-c2ccccc2)no1
 : nt | nt | -7 | 107
> O=C1NC(=Nc2ccccc2)S/C1=C/c1cc2c(cc1[N+](=O)[O-])OCO2
 : nt | nt | -8 | 100
